Compound activity (PubChem BioAssay)
HCMV NEC inh: cytomegalovirus nuclear egress complex inhibition; HTRF UL50-UL53 interaction, normalized percent inhibition; inhibition, % (test concentration not listed); 0.15% of 190,000 active;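 active means both replicates at 50% or more, plus weaker picks with an unusually low signal ratio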;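 further: stock transfer was 100 nL into about 20 µL; 0% = negative control wells and 100% = wells with untagged competitor protein; inactives centre near -12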
GIV Gai3 FP: blocks GIV peptide binding to rat Galpha-i3. Galpha-i3/FITC-GIV peptide fluorescence polarization, 90 min; stronger effect = lower value; scaled: aluminum fluoride 0%, vehicle 100%. AID 1224905. P08753. 0.42% of 210,000 active. percent of control (FP), % (test concentration not listed);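 active means replicate mean at 85% of control or lower, very high polarization wells dropped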;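 further: wells of about 15 µL received 100 nL stock; the first replicate is given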
Target sequence (P08753 whole entry, looked up): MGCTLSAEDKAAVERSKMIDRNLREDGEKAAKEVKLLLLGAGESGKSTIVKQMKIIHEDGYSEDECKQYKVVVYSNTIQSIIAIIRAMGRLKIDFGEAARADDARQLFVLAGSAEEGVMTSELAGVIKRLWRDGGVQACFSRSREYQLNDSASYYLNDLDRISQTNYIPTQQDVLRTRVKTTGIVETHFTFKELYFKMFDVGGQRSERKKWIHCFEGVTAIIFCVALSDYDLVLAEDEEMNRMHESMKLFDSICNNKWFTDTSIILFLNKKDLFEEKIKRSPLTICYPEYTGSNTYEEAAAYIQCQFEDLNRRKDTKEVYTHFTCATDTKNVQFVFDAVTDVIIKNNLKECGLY
Sa growth inh: blocks Staphylococcus aureus growth. S. aureus RN4220 growth, OD600, 20 h, 42 °C; stronger effect = lower value. 0.53% of 170,000 active. relative growth, % (test concentration not listed);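 active means growth at 42 °C up to 50% and 20 or more points under that at 30 °C, or under 10% at both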;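 further: 300 nL library stock went into each well; scaled to the means of positive and negative controls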
Sa growth inh second temp: recorded beside Sa growth inh, whose call it bears; relative growth, %; measured here: growth at 30 °C;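 optical density after 20 h as mean of two plates; 100% = untreated growth and lower means inhibition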
* hit, by the source's call; nt = not tested or not shown.

SMILES	HCMV NEC inh	GIV Gai3 FP	Sa growth inh	Sa growth inh second temp
Cc1ccc2c(c1)sc1nc(C)c(S(=O)(=O)Nc3ccc(Cl)cc3)c(=O)n12	-38	108	nt	nt
Cc1oc2ncnc(N3CCCCC3)c2c1C(=O)N1CCN(c2cccc(C(F)(F)F)c2)CC1	nt	104	106	92
Cc1cc(C)n2nc(CN(Cc3ccccc3)C(=O)C(C)C)nc2n1	-26	109	nt	nt
COc1ccc(COC(=O)C2=C(C)NC3=C(C(=O)CC(C)(C)C3)C2c2cc3c(cc2Br)OCO3)cc1 (stereo unspecified)	-11	104	nt	nt
O=C(NCCN1CCCCC1)C1CCN(c2ccc(-c3ccc(F)cc3)nn2)CC1	-55	102	nt	nt
CC(Sc1nnc(C(F)(F)F)n1N)C(=O)N(C)C1CCCCC1 (stereo unspecified)	-7	nt	92	93
COc1ccc(CC(=O)c2ccc(OC)cc2O)cc1	-5	101	103	104
Cc1cccc(CCNC(=O)CN(c2ccc(C(C)C)cc2)S(=O)(=O)c2c(C)nn(C)c2C)c1	5	108	114	93
CCOc1ccc(N(Cc2nc3nc(C)cc(=O)n3[nH]2)C(=O)C(C)C)cc1	-11	92	nt	nt
CCn1c(SCC(=O)N2CCCc3ccccc32)nnc1-c1cccs1	28	100	95	82
COc1ccc(C2=Nc3ccccc3N=C(SCC(=O)NCc3cccc(OC)c3OC)C2)cc1	-27	99	nt	nt
CC(C)OC(=O)CSc1nnc(-c2ccc(O)cc2)o1	-6	100	95	69
O=C(CN1C(=O)/C(=C\c2ccccc2F)Oc2ccccc21)NC1CC1	-7	108	103	97
CC1CCN(C(=O)c2cc3nc(-c4ccco4)cc(C(F)(F)F)n3n2)C2CCCCC12 (stereo unspecified)	-9	nt	82	82
O=C1CCCC(O)=C1C=Nc1ccc(Cl)c(Cl)c1	-8	101	nt	nt
COc1ccc(-c2nnc(SCC(=O)NC(N)=O)n2C2CCCCC2C)cc1 (stereo unspecified)	-18	nt	98	96
CC(=O)N(Cc1cc2ccccc2[nH]c1=O)c1ccccc1	8	nt	106	101
O=C(c1ccco1)N1CCN(Cc2nc3ccccc3[nH]2)CC1	-33	nt	107	82
C=CCNC(=O)c1cc2sccc2n1Cc1ccccc1	-12	105	118	76
CN1C(=O)CC(C(=O)O)SC1=Nc1cccc(C(F)(F)F)c1 (stereo unspecified)	-9	101	111	79
O=c1[nH]c2cc3nc(C(F)(F)F)[nH]c3cc2[nH]1	-4	nt	105	93
O=C(O)C1CCN(C(=O)OCC2c3ccccc3-c3ccccc32)CC1	-42	98	88	83
O=C(Nc1cccc(F)c1)Nc1ccon1	-2	107	103	69
CCOc1ccc(C(=O)Nc2cccc(-c3nc4cccnc4s3)c2C)cc1OCC	-1	103	105	88
CCOc1ccc(NC(=O)CSc2nc3c([nH]c4ccccc43)c(=O)n2-c2cc(C)cc(C)c2)cc1	nt	104	128	87
CCc1c(O)nc(SCc2ccccc2)n(C2CCCCC2)c1=O	-9	102	130	80
COc1ccc(OCCC(=O)Nc2ccc3[nH]c(=O)[nH]c3c2)cc1	-20	nt	79	91
COc1ccc(-c2nn3c(Nc4ccc(Cl)cc4)cc(C)nc3c2C)cc1OC	-37	108	nt	nt
Clc1ccc(-c2csc3ncnc(NCCCN4CCOCC4)c23)cc1	8	102	nt	nt
Cc1ncc(-c2ccc(C)c(S(=O)(=O)Nc3cccnc3)c2)o1	-7	104	nt	nt
CCCn1c(=N)c(C(=O)NCc2cccnc2)cc2c(=O)n3ccccc3nc21	-107	108	107	87
COc1ccc(-n2cc(C(=O)NCc3ccccc3)c3ccccc3c2=O)cc1	nt	106	93	104
COc1ccc(C)cc1Nc1nc2c(S(=O)(=O)c3cccc(Cl)c3)nnn2c2ccsc12	nt	104	81	84
Cc1cc(-c2nn3c(-c4ccccc4F)nnc3s2)no1	-11	105	nt	nt
Cc1nc2c(cc1C(=O)N/N=C/c1c[nH]c3ccccc13)c(=O)n(C)c(=O)n2C	-18	104	93	82
CCCN(CCC)S(=O)(=O)c1ccc(CC)cc1	-10	105	107	96
CCCS(=O)(=O)c1c(S(=O)(=O)CCC)c2cc(C(C)(C)C)ccn2c1C(=O)c1ccc(C)cc1	2	103	109	89
CCOc1ccccc1Nc1nc2ccc(C)cc2n2nnnc12	-13	123	nt	nt
O=S(=O)(Nc1nccs1)c1ccc(Nc2nnc(-c3ccccc3)c3ccccc23)cc1	-9	105	nt	nt
Cc1cc2nc(CSc3nnc(N)s3)cc(=O)n2o1	3	110	113	89
Cc1ccc(OCCSc2nc3ccccc3n2CC(=O)N2CCOCC2)cc1	0	106	85	87
CC(=O)Nc1ccc(S(=O)(=O)N(C)CC(=O)OCc2c(C)noc2C)cc1	5	nt	99	99
O=C1C[C@H]2[C@H](CO)[C@@H](OC(=O)c3ccc(-c4ccccc4)cc3)C[C@H]2O1	-12	104	103	95
Cc1cc(C)cc(NC(=O)Cn2c(=O)c3cccn3c3ccccc32)c1	nt	111	118	90
Cc1nccn1CC(=O)N/N=C/c1cccn1C	-37	99	99	86
COCCNC(=O)c1ccc2nc(CCc3ccccc3)oc2c1	nt	108	103	103
NS(=O)(=O)c1ccc(N2CCCC2c2ccc3c(c2)OCCCO3)nc1 (stereo unspecified)	-9	nt	112	81
CCc1c(C)nc2ncnn2c1Nc1ccc2c(c1)OCO2	-20	103	nt	nt
CC(C)(SC1CC(=O)N(c2ccccc2)C1=O)C(N)C(=O)O (stereo unspecified)	10	101	101	81
CCOC(=O)c1cnc2c(OC)cccc2c1N1CCN(c2ccccc2F)CC1	-50	99	51	48
FC(F)(F)c1cccc(C=NCc2ccc(-c3cccs3)s2)c1	-42	103	98	89
CCOc1ccc(CCNC(=O)Cn2ncn3nc(-c4cccs4)cc3c2=O)cc1OCC	nt	99	77	70
Cc1nn(S(=O)(=O)c2ccc(Cl)cc2)c(C)c1S(=O)(=O)N1CCCCCC1	nt	101	81	94
CCOC(=O)CC1COc2cc(F)ccc2N1 (stereo unspecified)	-4	101	nt	nt
N#CCn1c(CSc2nc3ccccc3c(=O)n2CCC2=CCCCC2)nc2ccccc2c1=O	-36	nt	67	97
CN1CCN(NC(=O)c2ccccc2Nc2ccc(SC(F)F)cc2)CC1	-12	nt	99	93
COc1ccccc1CNc1nc2ccc(C)cc2n2nnnc12	nt	109	77	79
COc1ccc(Cl)cc1N(CC(=O)N1CCCCCC1)S(=O)(=O)c1ccc(C)c([N+](=O)[O-])c1	-19	103	nt	nt
Cc1noc(C)c1S(=O)(=O)N1CCN(c2ccc(F)cc2)CC1	-24	101	nt	nt
CNC(=O)NC(=O)C(C)Oc1ccc(NC(=O)c2ccccc2OC)cc1 (stereo unspecified)	-18	nt	81	83

6 entries already listed, sorted by their value in Sa growth inh second temp, smallest number first.
| mol | Sa growth inh second temp |
| --- | --- |
| CCOC(=O)c1cnc2c(OC)cccc2c1N1CCN(c2ccccc2F)CC1 | 48 |
| CCOc1ccc(CCNC(=O)Cn2ncn3nc(-c4cccs4)cc3c2=O)cc1OCC | 70 |
| COc1ccccc1CNc1nc2ccc(C)cc2n2nnnc12 | 79 |
| NS(=O)(=O)c1ccc(N2CCCC2c2ccc3c(c2)OCCCO3)nc1 (stereo unspecified) | 81 |
| FC(F)(F)c1cccc(C=NCc2ccc(-c3cccs3)s2)c1 | 89 |
| Cc1nn(S(=O)(=O)c2ccc(Cl)cc2)c(C)c1S(=O)(=O)N1CCCCCC1 | 94 |

Continued:
SMILES	HCMV NEC inh	GIV Gai3 FP	Sa growth inh	Sa growth inh second temp
Cc1ccc(Cc2nc(CCNC(=O)Cc3cccc(C)c3)n[nH]2)cc1	8	102	nt	nt
N#C/C(=C\Nc1ccccc1O)c1nc2ccccc2o1	2	111	59	40
COc1cc2nc(SCC(=O)Nc3cccc(C)c3)n3nc(CCn4c(C)nc5ccccc54)nc3c2cc1OC	-14	99	107	97
Cc1nn(-c2ccc(F)cc2)c(-n2cccc2)c1C(=O)NCCCN1CCN(c2ccccc2F)CC1	nt	104	91	92
Cc1cccc(NC(=O)c2oc3ccccc3c2NC(=O)c2cc(=O)c3ccccc3o2)c1	-28	102	103	88
CCCNc1nc2ccccc2n2cnnc12	1	104	99	93
CN1C(=O)/C(=C/c2ccc(C(=O)OCCN3CCOCC3)cc2)SC1=S	-28	107	90	87
CCn1c(=S)[nH]c2ccc(Br)cc2c1=O	-12	106	117	98
COc1ccc(NC(=O)CSc2nnc(-c3ccncc3)n2-c2ccccc2)cc1	nt	101	110	92
CCNC(=O)C12CCC(C)(C(=O)O1)C2(C)C (stereo unspecified)	-29	104	82	92
CCOC(=O)c1c(C)oc(NC(=O)CSc2nc(Cc3ccccc3)c(C)[nH]2)c1C(=O)OCC	-16	nt	74	90
CCC(=O)NC(Nc1cc(C)ccn1)(C(F)(F)F)C(F)(F)F	-23	104	91	81
CCC(=O)N1N=C(c2ccco2)CC1c1cn(-c2ccccc2)nc1-c1ccc(OC)cc1 (stereo unspecified)	5	114	109	103
CS(=O)(=O)N(CC(=O)NCCc1ccccc1)c1cc(C(F)(F)F)ccc1Cl	-2	102	108	92
O=C(COC(=O)/C=C\c1ccco1)Nc1ccc(OC(F)(F)F)cc1	13	nt	91	89
COc1ccccc1CNC(=O)CN(c1ccc(C)cc1)S(=O)(=O)N(C)C	-22	102	nt	nt
c1ccc(SCc2cc(-c3ccccc3)no2)cc1	-2	101	nt	nt
COC(=O)C1=C(C)NC2=C(C(=O)CC(c3ccc(Cl)cc3)C2)C1c1cc(OC)c(OC)c(OC)c1 (stereo unspecified)	-11	99	nt	nt
Cc1oc(-c2ccc(OC(C)C)cc2)nc1CSc1nc2c(c(=O)[nH]1)CCC2	-2	105	nt	nt
COc1cc(NC(=O)C2CCN(S(=O)(=O)c3c(C)noc3/C=C/c3cccs3)CC2)cc(OC)c1	-33	105	103	88
COc1cc(NC(=O)Cn2c(=O)nc(-c3ccccc3F)c3cc(Cl)ccc32)cc(OC)c1	nt	106	115	101
c1ccc(-c2nnc(NC3=NCCC3)o2)cc1	-24	nt	103	90
Cc1cc(C)cc(NC(=O)C(=O)NCC(c2cccnc2)N2CCOCC2)c1 (stereo unspecified)	0	104	80	86
CCc1ccc(C2NCCc3cc4c(cc32)OCCO4)cc1 (stereo unspecified)	-4	nt	86	85
CCCCCn1c(CCC(=O)Oc2ccccc2OC)nc2c1c(=O)[nH]c(=O)n2CCCC	-17	nt	114	86
FC(F)(F)c1nnc2scc(-c3ccc(Cl)cc3)n12	2	101	105	106
COc1cc(N)c(Cl)cc1C(=O)OCC(=O)NC1(C#N)CCCCC1	9	nt	90	93
Nc1ccc(Sc2ccc3ccccc3c2Cl)c(Cl)c1	nt	98	107	101
O=C(O)c1cnc(-c2ccccc2)nc1-c1ccncc1	-12	107	97	89
O=C(NCCc1ccccc1)c1cnn2ccccc12	19	102	99	87
CCCCn1c(=O)c2oc3ccccc3c2n(CC(=O)Nc2ccccc2OC)c1=O	nt	111	89	103
Cc1cc(Sc2ccccc2NC(=O)c2ccc3c(c2)OCO3)n2ncnc2n1	-30	102	nt	nt
Cc1cn2c(=O)cc(COC(=O)COc3ccc(F)cc3)nc2s1	nt	104	88	91
CC1(C)OC(=O)C(=C2C3CC4CC(C3)CC2C4)C(=O)O1	-2	108	107	103
S=C(NC1CC1)NC1CCCc2ccccc21 (stereo unspecified)	-5	nt	114	97
CC(=O)OCc1ccccc1Sc1ccc(Cl)cc1C(=O)O	-4	104	118	102
Cc1ccc(C)c(NC(=O)CCN2C(=O)c3ccccc3S2(=O)=O)c1	-24	103	nt	nt
COC(=O)C1C(c2ccccc2)C(C(=O)OCc2ccccc2)C1c1ccccc1 (stereo unspecified)	-5	nt	97	98
CC(C)(C)OC(=O)C1C(=O)CC(C)(O)C(C(=O)OC(C)(C)C)C1/C=C/c1ccccc1 (stereo unspecified)	-1	110	97	98
COC(=O)Cn1ncc2c3ccccc3n(Cc3cc(C)ccc3C)c2c1=O	nt	102	100	90
N=C1C(c2ccccc2)=C(O)CN1c1ccc(S(=O)(=O)N2CCOCC2)cc1	-28	nt	92	94
CCOc1ccc(CNC(=O)c2ccc(-c3nc(CS(=O)(=O)c4ccccc4)c(C)o3)cc2)cc1	nt	108	121	94
CCOC(=O)N1CCC(NS(=O)(=O)c2csc(C(N)=O)c2)CC1	-13	103	97	89
COc1ccc(NC(=O)n2ncc3ccccc32)cc1OC	-16	101	nt	nt
Cc1ccc2oc(-c3nnc(C(=O)NC4CCCCC4)o3)c(C)c2c1	-14	103	nt	nt

Some of these compounds in order of count of non-hydrogen atoms, falling.
SMILES	HCMV NEC inh	GIV Gai3 FP	Sa growth inh	Sa growth inh second temp
Cc1cccc(CCNC(=O)CN(c2ccc(C(C)C)cc2)S(=O)(=O)c2c(C)nn(C)c2C)c1	5	108	114	93
COc1ccc(-c2nn3c(Nc4ccc(Cl)cc4)cc(C)nc3c2C)cc1OC	-37	108	nt	nt
Cc1ccc2oc(-c3nnc(C(=O)NC4CCCCC4)o3)c(C)c2c1	-14	103	nt	nt
Cc1cc(-c2nn3c(-c4ccccc4F)nnc3s2)no1	-11	105	nt	nt
CCNC(=O)C12CCC(C)(C(=O)O1)C2(C)C (stereo unspecified)	-29	104	82	92

Carrying on:
SMILES	HCMV NEC inh	GIV Gai3 FP	Sa growth inh	Sa growth inh second temp
CCc1ccc2c(c1)=C(c1sc(N)nc1O)C(=O)N=2	nt	109	77	74
Cc1cccc(OCC(=O)N(Cc2ccccc2)c2ccccn2)c1C	-11	106	93	72
O=C(NCCOc1ccc(F)cc1)c1ccccc1-c1ccccc1	-4	98	106	79
N=c1c(S(=O)(=O)c2ccccc2)cc2c(=O)n3ccccc3nc2n1C1CCCC1	nt	110	84	75
COc1ccc(N(CC(=O)N2CCN(c3ccccc3)CC2)S(=O)(=O)c2c(C)nn(C)c2C)cc1	-22	101	99	89
